T cruzi repl = blocks replication of Trypanosoma cruzi; T. cruzi beta-gal in NIH3T3, luminescence, 90 h; inhibition, % (no concentration beside the values); 1.4% of 300,000 active; AID 1885;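 active = mean inhibition across valid replicates above about 55%, limit read from the data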;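 note: signal also drops with host cell toxicity which is not excluded here; 0% = plate median of DMSO wells and 100% = zero luminescence signal; higher percent means less beta-gal luminescence so fewer parasites; stock transfer was 50 nL into about 50 µL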
E coli growth = E. coli growth inhibition; Escherichia coli growth, OD600, 23 h; stronger effect = lower value; OD600 absorbance (concentration not given with the values); 0.21% of 330,000 active; AID 1053175;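 active = OD600 absorbance below the run mean of sample wells minus 3.6 SD, in any replicate, cut at about 0.56 in these data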;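 note: stock transfer was 300 nL into about 60 µL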
Bfl-1 A1 inh = inhibitors of the anti-apoptotic protein A1, read as caspase activation. MEF A1-2A-BIM cells, Caspase-Glo 3/7 luminescence, 3 h; percent of clofoctol response, vehicle zero. caspase activation, % (test concentration not listed). 0.066% of 330,000 active;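 active = over half of replicate activation scores above 10%, or exactly half above 10 with the replicate mean above 10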;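 note: wells of about 30 µL received 50 nL stock; many hits fall short of the cut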
UCH37 DUB inh = human UCH37 deubiquitinating enzyme inhibition; Q9Y5K5; purified proteasome/UCH37, Ub-AMC cleavage fluorescence; inhibition, % (test concentration not listed); 0.33% of 330,000 active; AID 588478;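 active = mean of two replicates above 20%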;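 note: 0% = compound-free wells with enzyme and 100% = wells lacking proteasome; stock transfer was 100 nL into about 20 µL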
Target sequence (Q9Y5K5 whole entry, looked up): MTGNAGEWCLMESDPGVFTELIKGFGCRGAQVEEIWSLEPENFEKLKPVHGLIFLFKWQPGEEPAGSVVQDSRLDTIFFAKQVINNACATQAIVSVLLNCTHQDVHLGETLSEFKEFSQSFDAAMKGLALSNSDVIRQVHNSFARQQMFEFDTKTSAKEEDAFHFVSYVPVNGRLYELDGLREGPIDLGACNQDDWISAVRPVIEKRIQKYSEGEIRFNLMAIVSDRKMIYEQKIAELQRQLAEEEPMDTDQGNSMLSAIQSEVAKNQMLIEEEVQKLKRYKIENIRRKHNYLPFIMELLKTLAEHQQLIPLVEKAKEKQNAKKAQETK
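Test system – human UCH37 enzyme supplied as purified proteasome complex · Incubation – 30 min preincubation with enzyme, 25 min cleavage at room temperature · Detection – AMC fluorescence from Ub-AMC cleavage, excitation 355 nm, emission 460 nm · Benchmarks – no-proteasome wells (full inhibition) and compound-free wells (no inhibition)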
FGF22 binding = shifts melting point of recombinant human FGF22; Q9HCT0; recombinant FGF22 thermal shift, SYPRO orange fluorescence; percent of sucrose octasulfate shift, DMSO zero; calls only at 9.99 µM; 1.5% of 340,000 active; AID 651658;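 active = melting point raised past a set limit in the mean and every replicate; three in four hits are not shown here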
Target sequence (Q9HCT0 whole entry, looked up): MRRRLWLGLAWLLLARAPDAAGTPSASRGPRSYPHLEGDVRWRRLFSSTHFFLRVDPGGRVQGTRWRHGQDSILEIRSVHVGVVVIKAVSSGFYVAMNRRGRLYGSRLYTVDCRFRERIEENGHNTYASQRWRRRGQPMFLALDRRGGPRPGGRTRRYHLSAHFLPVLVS
Ecoli rRNA inh = inhibits bacterial ribosomal RNA function over humanized ribosomes. GFP signal change (wild-type ribosome), % (no concentration beside the values). 1.6% of 350,000 active. E. coli WT GFP vs humanized-ribosome RFP mutants, fluorescence, 24 h; stronger effect = lower value; DMSO median 0, no signal -100;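 active = significant combined selectivity score with lowered wild-type GFP, culture density cut under 30%, mutant RFP and density less affected; inactive = any of these conditions unmet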; note: one replicate is shown; some compounds called inactive have numbers as strong as hits
Beta apoptosis = beta cell apoptosis inhibition. INS-1E cytokine-induced death, ATP luminescence, 48 h; percent of positive-control rescue, neutral wells zero. 0.8% of 300,000 active. AID 435005. protection from apoptosis, % (concentration not given with the values);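 active = all replicates at 75% or more, or half of them and the mean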;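 note: 0% = cytokine-treated negative control wells and 100% = positive control rescue; higher means more ATP so stronger rescue from cytokine killing; wells of about 40 µL received 100 nL stock; the first replicate is given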
AF4-AF9 inh = MLL-AF4/AF9 protein interaction inhibition; AlphaScreen, biotin-AF4 peptide binding to FLAG-AF9; inhibition, % at 10 µM; 0.47% of 350,000 active;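 active = every replicate reaching a set inhibition limit, whatever the replicate mean, cut at about 25% in these data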;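 note: 0% = plate neutral control median and 100% = total signal loss; the record names both 10 and 1 µM as test concentration; the first replicate is given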
Target sequence (P42568 whole entry, looked up): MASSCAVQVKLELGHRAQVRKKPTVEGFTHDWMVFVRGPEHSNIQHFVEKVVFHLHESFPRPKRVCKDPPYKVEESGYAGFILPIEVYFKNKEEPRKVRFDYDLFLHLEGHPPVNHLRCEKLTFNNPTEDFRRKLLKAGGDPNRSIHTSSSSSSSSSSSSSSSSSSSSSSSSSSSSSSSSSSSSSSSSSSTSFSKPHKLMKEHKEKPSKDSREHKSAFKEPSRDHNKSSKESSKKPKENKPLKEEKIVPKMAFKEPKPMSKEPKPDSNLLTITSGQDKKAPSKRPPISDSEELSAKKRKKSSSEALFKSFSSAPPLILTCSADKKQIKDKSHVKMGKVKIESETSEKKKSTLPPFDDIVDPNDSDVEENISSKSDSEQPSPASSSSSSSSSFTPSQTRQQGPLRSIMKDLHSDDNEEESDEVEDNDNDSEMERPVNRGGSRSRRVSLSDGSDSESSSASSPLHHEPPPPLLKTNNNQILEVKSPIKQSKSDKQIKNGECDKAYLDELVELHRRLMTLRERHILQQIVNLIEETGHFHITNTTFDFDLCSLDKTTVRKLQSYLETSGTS
Ecoli rRNA inh OD600 = recorded beside Ecoli rRNA inh, whose call it bears; OD600 change, %; measured here: OD600 growth;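 optical density of the mix in the first replicate; 0 = DMSO median and -100 = no signal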
Ecoli rRNA inh RFP = also measured in Ecoli rRNA inh; calls as there; RFP signal change, %; measured here: RFP humanized mutant strains;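 first replicate; 0 = DMSO median and -100 = no signal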
An asterisk follows results filed as active; i = inactive; / = not tested or not shown; & = joins results of further samples. Not all compounds are listed; count on the stated rates, not on these rows.

SMILES	T cruzi repl	E coli growth	Bfl-1 A1 inh	UCH37 DUB inh	FGF22 binding	Ecoli rRNA inh	Ecoli rRNA inh OD600	Ecoli rRNA inh RFP	Beta apoptosis	AF4-AF9 inh
CN1C(=O)/C(=C/c2ccc(OCc3ccccc3F)cc2)NC1=S	-3	0.67	0.0	2.8	i	1	19	1.5	0	-1.7
Cc1nc(C)c(C(=O)N2CCCC(C(=O)c3cc(F)ccc3F)C2)s1 (stereo not given)	-3	0.71	-0.2	1.2	i	0	-18	-3.5	-2	-0.7
CC(C)(C)Sc1ccccc1S(=O)(=O)C(C)(C)C	-2	0.68	1.2	0.3	i	11	3	3.3	/	-6.3
Cc1sc2nc(SCc3nc(-c4cccs4)no3)n(-c3ccccc3)c(=O)c2c1C	1	0.68	-0.4	1.9	/	/	/	/	2	/
Cc1ccc(-n2cccc2/C=C2/C(=N)N3C(=NC2=O)SN=C3S(C)(=O)=O)cc1Cl	/	0.67	-0.3	9.6	/	/	/	/	1	/
CCOc1ccccc1NC(=O)C1CCCN(S(C)(=O)=O)C1 (stereo not given)	-6	0.63	-0.3	0.4	i	1	6	-1.7	2	-3.6
COc1cccc(OC)c1C(=O)Nc1sc2c(c1C#N)CCC2	11	0.71	0.1	-20	i	10	-1	0.0	-3	-20
CC(C)c1ccc(N(CC(=O)NCCCN2CCOCC2)S(=O)(=O)c2ccccc2)cc1	/	0.66	/	4.5	i	5	7	1.4	/	0.8
CC(OC(=O)CCCc1nc2ccccc2s1)C(N)=O (stereo not given)	-3	0.75	0.3	3.5	/	/	/	/	-12	/
CC(=O)Nc1ccc(C(=O)NCCCOC(C)C)cc1	-9	0.72	0.3	0.1	/	19	16	-0.6	4	-0.6
COc1ccc(OC(=O)COc2ccc(C)cc2)cc1	-9	0.69	-0.7	4.3	i	3	7	0.1	1	-1.4
Cc1cc(-n2nnc3ccccc32)nc2ccccc12	2	0.67	-0.2	-2.2	/	19	22	3.1	2	/
O=c1cc(CCl)nc(Cc2c(Cl)cccc2Cl)[nH]1	-3	0.65	0.4	5.0	i	7	9	-2.6	/	-1.5
Cc1cc(OCC(=O)C(C)(C)C)c2c(-c3ccccc3)cc(=O)oc2c1	1	0.69	0.2	-2.0	i	-27	-42	-6.5	5	-0.2
CCN(CC)C(=O)Cn1cc(S(=O)(=O)CC(=O)Nc2ccccc2C)c2ccccc21	-3	0.73	-0.3	-0.9	i	7	19	-0.4	-2	-0.2

Brought forward from above: 4 entries, followed by the next part.
SMILES	T cruzi repl	E coli growth	Bfl-1 A1 inh	UCH37 DUB inh	FGF22 binding	Ecoli rRNA inh	Ecoli rRNA inh OD600	Ecoli rRNA inh RFP	Beta apoptosis	AF4-AF9 inh
Cc1cc(-n2nnc3ccccc32)nc2ccccc12	2	0.67	-0.2	-2.2	/	19	22	3.1	2	/
O=c1cc(CCl)nc(Cc2c(Cl)cccc2Cl)[nH]1	-3	0.65	0.4	5.0	i	7	9	-2.6	/	-1.5
Cc1cc(OCC(=O)C(C)(C)C)c2c(-c3ccccc3)cc(=O)oc2c1	1	0.69	0.2	-2.0	i	-27	-42	-6.5	5	-0.2
CCN(CC)C(=O)Cn1cc(S(=O)(=O)CC(=O)Nc2ccccc2C)c2ccccc21	-3	0.73	-0.3	-0.9	i	7	19	-0.4	-2	-0.2
CS(=O)(=O)N(CC(=O)Nc1ccc2c(c1)OCCO2)Cc1ccc(Cl)cc1	/	0.77	-0.6	4.0	/	/	/	/	1	/
Cc1cccc(OCCSc2nc3c([nH]2)c(=N)ncn3Cc2ccccc2)c1	11	0.71	0.0	4.3	/	/	/	/	-5	/
O=C(NC(=S)Nc1ccccc1Br)C1CC1	-14	0.64	0.1	1.7	i	-22	-14	-7.8	-3	-2.6
CC(=O)CC(=O)Nc1ncccn1	-13	0.71	0.1	0.5	/	10	14	0.6	-4	-1.9
CCC(C)Nc1cc(C)nc2ncnn12 (stereo not given)	0	0.66	-0.4	5.9	i	35	38	0.3	2	0.2
CC(C)CCn1c(N2CCCC2)nc2c1c(=O)n(C)c(=O)n2C	14	0.69	-0.4	5.9	i	-7	-7	-3.3	1	0.8
CCC(C)(C)NC(=O)C(c1ccc(F)cc1)N(Cc1cccc(OC)c1)C(=O)c1cnccn1 (stereo not given)	23	0.7	-0.1	0.5	i	6	-6	2.6	-1	-1.0
CCCCCCC(=O)Nc1c2c(nc3ccccc13)N(C)CC2	5	0.73	0.2	-101	/	/	/	/	-1	/
O=C(/C=C/c1ccco1)Nc1nc(-c2ccc(F)c(F)c2)cs1	25	0.65	0.3	-12	/	/	/	/	15	/
Cc1ccc2nc(SCC(=O)NC3CCCCC3)nc(=O)n2c1	-4	0.67	0.0	-11	i	1	-1	-0.8	/	-6.9
O=C(CCN1CCN(S(=O)(=O)c2ccc(Cl)cc2)CC1)Nc1ccc(F)cc1	1	0.7	-0.2	6.6	i	-3	-8	-3.2	-1	1.3
COc1ccccc1C(=O)NC(=S)Nc1ccc(N2CCOCC2)c(Cl)c1	11	0.67	1.0	6.6	i	7	2	0.8	11	-1.9
CCCCOc1cccc(C(=O)NNC(=S)NC2CCCCC2)c1	-8	0.68	0.5	-0.6	/	/	/	/	7	/
COc1ccc(-c2nn(-c3ccccc3)cc2C(=O)NC2CC2)cc1	/	0.67	1.4	3.4	i	5	9	2.6	0	-2.5
C=CCNC(=O)c1ccc(Sc2ccccc2)c([N+](=O)[O-])c1	7	0.7	1.2	/	/	/	/	/	3	/
Cc1nc2scc(C)n2c(=O)c1S(=O)(=O)Nc1ccc(N2CCN(C(=O)C(C)C)CC2)cc1	13	0.7	0.8	10	i	4	-4	2.4	5	-4.1
Cc1c(C#N)c(=O)oc2ccc3ccccc3c12	-8	0.71	0.9	i	/	/	/	/	8	/
COC(=O)c1c(C(=O)OC)c2cccc3cc(-c4ccccc4)c4ccc1c4n32	13	0.82	-1.6	-0.6	/	/	/	/	12	/
O=C(CC(=O)N/N=C/c1c(Cl)cccc1Cl)NCc1cccnc1	1	/	-0.2	/	i	2	-4	0.4	-7	-4.5
Cc1cc(C)cc(NC(=O)COC(=O)[C@@H](NC(=O)c2ccco2)C(C)C)c1	-7	0.69	0.2	0.3	i	-24	-28	-7.0	-8	0.3
CCOC(=O)C1=C(O)CSC1=Nc1ccccc1	-8	0.77	-0.2	-3.8	/	/	/	/	1	/
CC(=O)Nc1ccc(C(=O)CSc2nnnn2C)cc1	-5	0.71	0.9	1.7	i	9	10	3.0	0	-6.2
COc1ccc(/C=C2\SC(=S)N(CCC(=O)NC3C=CS(=O)(=O)C3)C2=O)cc1 (stereo not given)	-35	/	-0.8	/	i	8	14	14	-12	-0.4
COC(=O)C1=C(C(=O)OC)[C@]2([C@H]3CC=CCN[C@@H](Cc4ccccc4)C(=O)N3Cc3ccccc3)C=C[C@H]1O2	/	/	/	4.9	i	24	14	25	/	3.7
Cc1cccc(C)c1NC(=O)CCCSc1nnc(-c2ccc(F)cc2)n1-c1ccccc1	6	0.68	-0.4	0.5	i	-53	-70	-25	9	0.5
CCCn1c(SCc2ccccc2)nc2c1c(=O)[nH]c(=O)n2C	4	0.78	1.0	1.8	/	/	/	/	/	/
C=CCn1c(SCC(=O)N2CCOCC2)nc(O)cc1=O	-12	0.72	1.6	0.5	/	/	/	/	-1	/
Nn1c(Cc2ccccc2F)nnc1SCC(=O)N1CC(=O)Nc2ccccc21	-7	0.67	0.6	3.3	/	/	/	/	1	/
O=C(N=C1c2ccccc2CN1c1ccc(F)c(F)c1)c1cccnc1	-19	0.69	-2.5	-0.9	i	2	10	1.0	-6	1.6
COc1ccc(NC(=O)CN(C)C(=O)CNC(=O)Cc2cccc3ccccc23)cc1	0	0.68	0.9	0.8	i	5	0	1.0	-5	-0.3
Cc1ccc(S(=O)(=O)N2CCC(C(=O)N3CCCCCCC3)CC2)cc1	/	0.67	/	0.0	i	-5	-6	0.7	/	-27
CCc1ccccc1NC(=O)c1ccc(NCCc2ccccc2)c([N+](=O)[O-])c1	9	0.69	-1.0	3.4	/	/	/	/	3	/
COc1c2ccoc2cc2oc(C)cc(=O)c12	-3	0.71	-1.5	-4.8	i	/	/	/	-10	-1.2
CCN(CC)S(=O)(=O)c1cccc(NC(=O)CN2C(=O)NC3(CCOc4ccccc43)C2=O)c1 (stereo not given)	/	0.69	/	2.0	i	-13	-10	-0.4	/	0.8
Brc1ccc(-c2csc(N3CCC(c4ccccc4)C3)n2)cc1 (stereo not given)	-25	0.72	0.3	1.4	/	/	/	/	-1	/
Cc1ccc(NC(=O)CN(C)C(=O)COc2ncnc3ccc(Br)cc23)cc1	/	0.72	-0.7	0.5	i	5	8	0.0	0	-0.5
O=C(NCc1ccccc1)c1cccc2c1C(=O)c1ccc(/C=C/c3ccccc3)cc1S2(=O)=O	/	/	1.9	-5.5	i	5	0	-1.8	31	/
CN(CCc1ccccn1)C(=O)CCc1nnc(CCCc2ccccc2)o1	-5	0.64	-0.8	-0.8	i	-1	1	-4.7	-3	-3.1
CC(Oc1ccccc1)C(=O)Nc1nc(-c2ccncc2)cs1 (stereo not given)	/	0.73	0.2	1.3	i	12	17	-0.9	-3	-0.5
CCCC(=O)N(CCN1CCOCC1)c1nc2c(F)cc(F)cc2s1	3	0.69	-0.4	5.9	i	-13	-8	-3.7	/	-1.4
CCOc1ccccc1CNC(=O)c1cc2oc3ccccc3c2n1C	26	0.71	0.2	-19	/	/	/	/	8	/
NC1=NC2(CCN(Cc3ccccc3)CC2)n2c(nc3ccccc32)N1	-7	0.69	0.1	4.8	/	/	/	/	-2	/
Cc1ccc(C(=O)NC(C)c2ccc(-n3ccnc3)cc2)c(C)c1 (stereo not given)	5	0.74	0.3	-2.6	i	5	21	-1.3	-2	-7.7
CCOCCCNC(=O)c1cc(Sc2ccc(F)cc2)nc2ccccc12	1	0.64	-0.2	2.5	i	0	8	1.9	-6	1.3
C[C@H](CO)N1C[C@H](C)[C@@H](CN(C)S(C)(=O)=O)Oc2ccc(NS(=O)(=O)c3ccccc3)cc2C1=O	/	0.77	0.1	3.2	i	2&10	8&12	0.0&2.2	-2	-0.6&1.3
CC(=O)c1cccc(NC(=O)COc2cc(C)on2)c1	/	0.71	0.2	1.3	i	0	4	-1.5	-2	1.6
Cc1c(C(=O)N2CCN(c3ncccn3)CC2)oc2c(Cl)cccc12	-2	0.7	0.1	5.3	i	0	6	-2.6	-3	-10
O=C(NCc1ccc(Cl)cc1)C(=O)NCC(c1cccnc1)N1CCN(c2ccc(F)cc2)CC1 (stereo not given)	53	0.69	-0.7	6.2	i	0	6	-2.4	23	-0.2
CC(=O)NC1Sc2ccccc2N=C1c1ccccc1 (stereo not given)	-26	/	0.7	0.4	/	/	/	/	2	/
Fc1ccc(OCc2nn3c(Cn4nnc5ccccc54)nnc3s2)cc1	-6	0.69	-0.6	0.7	/	/	/	/	-2	/
